PV pol inh – inhibitors of poliovirus RNA polymerase binding and polymerization; P03300; poliovirus polymerase elongation, fluorescence polarization; stronger effect = lower value; % elongation, % (compound at 16.7 µg/mL); 0.66% of 150,000 active; AID 588519; in the data active means % elongation below about 90%; further: some results filed as inactive read as strong as hits
Target sequence (P03300 1749-2209 limits assumed): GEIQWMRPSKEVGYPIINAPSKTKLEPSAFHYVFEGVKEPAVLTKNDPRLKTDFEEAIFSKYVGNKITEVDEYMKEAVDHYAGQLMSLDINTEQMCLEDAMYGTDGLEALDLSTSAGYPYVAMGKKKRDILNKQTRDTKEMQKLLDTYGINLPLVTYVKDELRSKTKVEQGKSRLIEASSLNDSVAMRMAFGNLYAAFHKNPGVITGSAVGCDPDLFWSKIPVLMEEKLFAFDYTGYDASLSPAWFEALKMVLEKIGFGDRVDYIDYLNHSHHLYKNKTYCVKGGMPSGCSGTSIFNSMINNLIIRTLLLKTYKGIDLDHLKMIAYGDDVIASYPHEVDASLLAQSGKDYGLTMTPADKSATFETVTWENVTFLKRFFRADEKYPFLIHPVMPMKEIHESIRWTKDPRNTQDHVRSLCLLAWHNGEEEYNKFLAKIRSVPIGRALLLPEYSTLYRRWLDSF
PV pol inh intensity – further read-out of PV pol inh, marked with its call; % elongation; measured here: total intensity read-out; formula for this scale not given here;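 total fluorescence in place of polarization; lower means less elongation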
Starred values were filed as active, the others as inactive. An excerpt; count on the stated rates, not on these rows.

SMILES	PV pol inh	PV pol inh intensity
CCOC(=O)c1ccccc1NC(=O)c1cc2c(=O)oc3ccc(C)cc3c2s1	108	106
CC1CCCN(Cc2c(O)ccc3c(=O)c(Oc4ccc(C(C)(C)C)cc4)c(C(F)(F)F)oc23)C1 (stereo not given)	103	104
Cc1ccc(S(=O)(=O)n2nc(-c3ccco3)nc2NCc2ccc(N(C)C)cc2)cc1	107	106
O=C(Nc1cccc(C(F)(F)F)c1)c1cc(-c2ccc3c(c2)OCCO3)on1	104	104
CCOc1ccccc1NC(=O)C(C)N(c1ccccc1)S(C)(=O)=O (stereo not given)	100	101
COc1cc(NC(=O)Cn2c(-c3ccccc3)cc(C(C)=O)c2C)cc(OC)c1	107	110
Cc1ccccc1CNC(=O)C(=O)NCC(c1cccs1)S(=O)(=O)c1cccs1 (stereo not given)	101	98
Cc1ccc(Nc2c(-c3ccc(N(C)C)cc3)nc3ccccn23)cc1	109	106
COc1ccc(C)cc1NC(=O)Cn1c(=O)ccc2cc(S(=O)(=O)N3CCCC3)ccc21	103	108
C=CCc1ccccc1OCC(O)CN1CCN(c2ccccc2)CC1 (stereo not given)	97	91
CSc1ccc(CCNC(=O)c2cnc3c(C)cccn3c2=O)cc1	102	88
Cc1ccccc1NC(=O)CCN1C(=O)c2ccccc2Sc2ncccc21	102	107
CCOC(=O)c1ccccc1NC(=O)N(Cc1ccco1)C1CCN(C(C)=O)CC1	105	97
CCOC(=O)c1c(C)[nH]c(C)c1S(=O)(=O)N1CCC(C(=O)NCc2ccc(OC)cc2)CC1	108	107
Cc1ccc(CN2C(=O)C(=O)c3cc(Br)cc(C)c32)cc1	105	111
CCn1cc2nc(SCC(=O)Nc3ccc(C)cc3C)n(Cc3ccc(C)cc3)c(=O)c2n1	112	107
CCCc1cnc2c(c1SCC(=O)Nc1c(C)cc(C)cc1C)c(=O)n(C)c(=O)n2C	109	108
Cc1cccc(NC(=O)CCNS(=O)(=O)c2ccc3c(c2)CCCC(=O)N3)c1C	113	115
COC(=O)c1ccccc1NC(=O)c1cccn(Cc2cccc(Cl)c2)c1=O	102	107
COc1ccc(C(=O)NCc2ccc3c(c2)CCN3C(C)=O)c(OC)c1	104	99
COc1ccc(NC(=O)CSc2cn(CCNC(=O)c3ccc(OC)cc3)c3ccccc23)cc1	105	105
COc1ccc(-c2cc3c(=O)n(CC(=O)Nc4cc(C)ccc4C)ccn3n2)cc1	107	114
CC(=O)c1c(C)oc2ccc(N(C(=O)Oc3ccccc3)S(=O)(=O)c3ccc(Cl)cc3)cc12	110	114
O=C(CSc1nc2c([nH]c3ccccc32)c(=O)n1-c1cccc(Cl)c1)N1CCOCC1	110	112
CC(C)c1ccc(Nc2c(-c3ccc(N(C)C)cc3)nc3cnccn23)cc1	103	105

Grouped by structure: the entries above containing a CF3 group.
SMILES	PV pol inh	PV pol inh intensity
CC1CCCN(Cc2c(O)ccc3c(=O)c(Oc4ccc(C(C)(C)C)cc4)c(C(F)(F)F)oc23)C1 (stereo not given)	103	104
O=C(Nc1cccc(C(F)(F)F)c1)c1cc(-c2ccc3c(c2)OCCO3)on1	104	104

Whole records, quoted from the list:
CSc1ccc(CCNC(=O)c2cnc3c(C)cccn3c2=O)cc1 as listed: PV pol inh = 102; PV pol inh intensity = 88
CCOC(=O)c1ccccc1NC(=O)c1cc2c(=O)oc3ccc(C)cc3c2s1 as listed: PV pol inh = 108; PV pol inh intensity = 106
CC(C)c1ccc(Nc2c(-c3ccc(N(C)C)cc3)nc3cnccn23)cc1 as listed: PV pol inh = 103; PV pol inh intensity = 105

Remaining list, next part.
SMILES	PV pol inh	PV pol inh intensity
COc1cccc(CNC(=O)C2CCCN(S(=O)(=O)c3ccc4c(ccn4C)c3)C2)c1OC (stereo not given)	109	116
CCc1ccc(N2C(=O)CSC23C(=O)N(Cc2ccc(C)cc2)c2ccccc23)cc1 (stereo not given)	107	113
COC(=O)c1cc2oc(C)cc2n1Cc1c(C)cc(C)cc1C	112	110
CCc1cc2c(cc3c(=O)n(CC(=O)NCc4cccc(Cl)c4)nc(CC)n32)s1	107	114
N#Cc1ccc(CSc2nc3c(c(=O)[nH]2)CCCC3)cc1	110	109
COC(=O)C1=C(c2ccccc2)c2ccccc2S(=O)(=O)N1CC(=O)Nc1cc(C)ccc1C	103	107
CC1CCN(S(=O)(=O)c2cc(C(=O)NCc3ccc(F)cc3)n(C)c2)CC1	104	105
COc1ccc(C(C(=O)NCc2ccccc2)N(C(=O)Cn2nnc3ccccc32)c2cccc(OC)c2)cc1 (stereo not given)	110	110
Cc1ccc(Nc2ncc(C(=O)N3CCN(c4ccc(F)cc4)CC3)c3ccccc23)cc1Cl	104	104
COc1ccc(NC(=O)c2cc3cc(C)ccc3[nH]2)cc1	113	103
COc1ccc(OC)c(CCNC(=O)CCn2c(=O)c3cccn3c3ccc(F)cc32)c1	111	108
CCOc1ccc(NC(=O)c2c(NC(=O)c3ccccc3F)sc3c2CCC3)cc1	103	98
CCCN1CCc2nc(N3CCN(C)CC3)ncc2C1	104	98
Cc1nnc(NC(=O)CSCc2cc(=O)c3cc(Cl)ccc3[nH]2)s1	108	112
Clc1ccc2nc(-c3cccs3)c(Nc3ccc4c(c3)OCCO4)n2c1	115	117
COc1cc(CNCc2cccnc2)ccc1OCc1ccccc1	102	100
Cc1cc(-c2ccc(S(=O)(=O)Nc3ccccc3F)s2)on1	103	106
COC(=O)c1ccc(NC(=O)CCc2c(C)nc3c(c2C)c(=O)n(C)c(=O)n3C)cc1	104	105
CCc1ccc(NC(=O)c2ccc3c(c2)N(Cc2ccc(C)cc2)CCS3)cc1	104	107
COCCCNC(=O)c1cc2n(n1)CCCN(Cc1ccc(C)cc1)C2=O	107	110
O=C(CSc1nnc(CNC(=O)c2ccccc2F)n1-c1ccccc1)Nc1ccccc1F	99	91
COc1cc(-c2nc(SCC(=O)Nc3ccc(C)cc3)c(-c3ccc(F)cc3)[nH]2)cc(OC)c1OC	118	113
CN(C)c1oc(/C=C/c2ccc(F)cc2)nc1C#N	105	111
COc1cc(OC)cc(C(=O)Nc2c(C(=O)Nc3ccc(F)cc3)oc3ccccc23)c1	104	110
CCN(CCCNC(=O)c1cc2c(=O)n(CC)c3ccccc3c2s1)c1ccccc1	103	108

An excerpt of the results above, for reference:
SMILES	PV pol inh	PV pol inh intensity
CN(C)c1oc(/C=C/c2ccc(F)cc2)nc1C#N	105	111
COc1cc(OC)cc(C(=O)Nc2c(C(=O)Nc3ccc(F)cc3)oc3ccccc23)c1	104	110
CCN(CCCNC(=O)c1cc2c(=O)n(CC)c3ccccc3c2s1)c1ccccc1	103	108

Following part:
SMILES	PV pol inh	PV pol inh intensity
CCN1CCN(C(c2ccccc2)c2sc3nc(-c4ccco4)nn3c2O)CC1 (stereo not given)	113	114
Cc1cc(C)c(S(=O)(=O)NCC(c2ccc(N(C)C)cc2)N2CCc3ccccc32)c(C)c1 (stereo not given)	100	105
O=C(Cn1c(=O)n(Cc2ccc(C(=O)NCc3ccccc3Cl)cc2)c(=O)c2ccccc21)Nc1ccc(F)c(Cl)c1	108	113
CCc1ccc(NC(=O)C2CCCN(S(=O)(=O)c3ccc4c(c3)oc(=O)n4C)C2)cc1 (stereo not given)	108	110
Cc1ccc(NC(=O)CSc2nnc3scc(-c4ccccc4)n23)cc1	104	105
COc1ccc(OC)c(CNC(=O)c2ccc(NC(=O)c3nsc4ccccc34)cc2)c1	106	112
Cc1cc(C)cc(NC(=O)Cn2cc(S(=O)(=O)NC(C)(C)C)c(S(=O)(=O)NC(C)(C)C)c2)c1	108	105
CC(C)CC(=O)N(Cc1ccccc1)S(=O)(=O)c1ccc2c(c1)oc(=O)n2C	113	103
Cc1cc(=O)[nH]c2nnc(SCC(N)=O)n12	107	112
Cc1cc(C)c(Cn2c3ccccc3c3cnn(CC(=O)NCc4ccc(Cl)cc4)c(=O)c32)c(C)c1	103	104
Cc1ccc(Cn2cc(CCC(=O)NCC(C)c3ccccc3)c3ccccc32)cc1 (stereo not given)	100	95
CCOc1ccc(-c2nc(CNC(=O)Nc3ccccc3)c(C)o2)cc1	112	108
CCN(C(=O)Cn1cnc2sc(C)c(S(=O)(=O)N3CCN(c4ncccn4)CC3)c2c1=O)c1ccccc1F	108	111
CCOc1ccccc1NC(=O)CN(CCc1ccccc1)S(=O)(=O)c1ccc(C)cc1	105	107
CCCN(CCC)CCCNC(=O)Cn1cnc2sc(C)c(S(=O)(=O)N3CCC(C)CC3)c2c1=O	106	102
CCOC(=O)c1sc2ncn(CC(=O)Nc3cc(C)cc(C)c3)c(=O)c2c1C	108	106
Cc1ccc(CNC(=O)c2ccc(NC(=O)c3nsc4ccccc34)cc2)cc1	105	106
Cc1ccc2c(c1)C(Cc1nc3ccccc3c(=O)n1-c1ccc(Br)cc1)C(=O)N2 (stereo not given)	109	96
CCC(=O)C1=C(c2ccc(F)cc2)N(C(=O)CC)n2c(nnc2C2CCCCC2)S1	110	112
COc1ccc(C2C=C(c3ccccc3)Nc3nc(NC(=O)/C=C/c4ccc(Cl)cc4)nn32)cc1 (stereo not given)	113	107
CC1CCCN(C(=O)c2cc3c(=O)n(C)c4ccccc4c3s2)C1 (stereo not given)	99	95
CN(Cc1ccccc1)C(=O)CSc1c2c(nc3ccc(Cl)cc13)CCCC2	99	100
Cc1ccc(-c2nc3ncccc3o2)cc1NC(=O)COc1ccc(C(C)C)cc1	104	102
CCOc1ccc(-c2c(C)nn3c(-c4ccccc4)c(C(=O)NCCOC)cnc23)cc1OCC	111	109
Cc1cccc(NC(=O)C(=O)NCC(c2ccc3c(c2)OCO3)N2CCN(C)CC2)c1C (stereo not given)	107	106

Further structures
SMILES	PV pol inh	PV pol inh intensity
Cc1ccccc1Cn1cccc(C(=O)Nc2cc(Cl)ccc2C#N)c1=O	106	113
Cc1cccc(NC(=O)Nc2cccs2)c1C	111	117
Cc1ccc(CNC(=O)c2ccc3c(c2)CCN3S(=O)(=O)c2ccccc2)cc1	105	104
COc1ccc(NC(=O)C2CCN(C3=NS(=O)(=O)C(c4ccc(C)c(C)c4)=C3C)CC2)c(OC)c1	104	98
COc1ccccc1CSc1nc2n(n1)C(c1ccccc1)C(C(=O)Nc1ccc(C)cc1)=C(C)N2 (stereo not given)	99	110
Cc1ccccc1CNC(=O)c1ccc(Cn2c(SCc3cccc(F)c3)nc3cccnc32)cc1	108	106
CS(=O)(=O)N1CCCc2cc(C(=O)Nc3cccc(C(F)(F)F)c3)ccc21	106	105
CCOc1ccc(NC(=O)/C(C#N)=C\c2ccc(-c3ccc(Cl)cc3)o2)cc1	104	107
Cc1ccc(C)c(N2CCN(C(=O)CCc3c(C)nn(-c4ccc(N5CCCC5)nn4)c3C)CC2)c1	100	102
COc1ccc(CCNC(=O)Cn2nc(C)c3c(C)n(-c4ccc(C)cc4)nc3c2=O)c(OC)c1	109	115
COc1ccc(Cl)cc1NC(=O)NCCc1c(C)nn(C)c1C	109	103
CCOC(=O)c1c(Nc2ccc(OCC)cc2)nnc(-c2ccccc2)c1-c1ccccc1	103	105
Cc1ccc(CNC(=O)c2nn(C)c3c2CSc2ccc(C)cc2-3)cc1	107	112
O=C(CSc1cn(CC(=O)N2CCCCC2)c2ccccc12)NCc1ccc(F)cc1	113	119
CCOC(=O)c1c(C)oc2ccc(N(C(=O)Oc3ccccc3)S(=O)(=O)c3ccc(CC)cc3)cc12	103	107
Cc1cc(C)c(NC(=O)CN2C(=O)C3(SCC(=O)N3c3ccc(F)cc3)c3ccccc32)c(C)c1 (stereo not given)	113	113
CC1=Nc2cc(C(=O)NCCc3ccc(Cl)cc3)ccc2Sc2c(C)ccc(C)c21	109	110
COc1ccc(-c2c(C)c3ccc(O)c(CN4CCCCC4C)c3oc2=O)cc1OC (stereo not given)	112	113
CC(C)Oc1ccc(CNC(=O)c2ccc3nc(SCc4ccc(F)cc4)n(C)c3c2)cc1	115	105
CC(=O)Nc1ccc(NC(=O)CN2C(=O)CN(C)C(=O)c3ccccc32)cc1	104	95
Cc1oc2ccc(O)c(CN3CCC(C)CC3)c2c1C(=O)Nc1ccccc1	102	104
Cc1ccc(NC(=O)c2cc(S(=O)(=O)N3CCC(C)CC3)cn2C)cc1Cl	111	101
CCCc1nn2c(=O)cc(COC(=O)c3ccccc3NC(=O)c3cccs3)nc2s1	104	104
COc1ccc(-c2cc(C(=O)Oc3ccccc3)c3cc(C)ccc3n2)cc1	110	108
Nc1c(C(=O)Nc2ccccc2)sc2nc3c(cc12)CN(Cc1ccccc1)CC3	103	111
COc1ccc(NC(=O)Cn2c(=O)n(-c3ccc(OC)cc3)c(=O)c3ccc(C(=O)NCc4ccc(C)cc4)cc32)cc1	103	111
COc1ccc(-n2ncc(C(=O)N3CCN(C4CCCCC4)CC3)c2C2CCN(C(=O)OC(C)(C)C)CC2)cc1	101	107
